VDR inhibitor: blocks the human vitamin D receptor; P11473; VDR-SRC2-3 peptide fluorescence polarization, 2 h; Potency, µM, without a hit: max response, negative = inhibition, actives largely listed as inhibitors; 0.93% of 400,000 active; AID 504847; active = well fitted inhibition curve with a large enough effect; inconclusive = small, poorly fitted or top-dose-only effect, or another doubt; inactive = no such curve, though single readings can be large or run the other way; also: series mostly up to about 120 µM
Target sequence (P11473 whole entry, looked up): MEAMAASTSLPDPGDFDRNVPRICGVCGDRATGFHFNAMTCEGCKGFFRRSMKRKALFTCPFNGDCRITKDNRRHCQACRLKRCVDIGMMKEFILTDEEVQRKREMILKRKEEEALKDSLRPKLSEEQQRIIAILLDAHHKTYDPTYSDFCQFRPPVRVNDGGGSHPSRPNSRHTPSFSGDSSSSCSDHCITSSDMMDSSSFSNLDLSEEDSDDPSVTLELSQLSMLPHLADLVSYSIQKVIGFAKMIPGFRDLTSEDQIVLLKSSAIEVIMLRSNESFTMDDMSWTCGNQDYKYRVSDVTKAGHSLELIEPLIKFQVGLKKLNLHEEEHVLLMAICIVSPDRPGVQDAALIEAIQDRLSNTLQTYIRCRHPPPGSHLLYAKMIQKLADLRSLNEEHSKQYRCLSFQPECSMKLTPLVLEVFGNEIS
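Signal is fluorescence polarization, reporting how far test compounds block the interaction of VDR with the SRC2-3 coregulator peptide after a 2 h room-temperature incubation.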
Numbers without * were called inactive; u = inconclusive; [ ] = another dose, or the depositor's remark. % is scaled to controls: 0 for no effect and ±100 for the full control effect; potency is read from the fitted curve at half-maximal effect. Some of the compounds tested; count on the stated rates, not on these rows.

| VDR inhibitor | mol |
| --- | --- |
| 10% | CCOC(=O)c1c(C)c(C(=O)NCCN2CCOCC2)c(C)n1CC |
| -4% | Cc1cc(-c2ccccc2)nc(N/N=C/c2ccco2)n1 |
| 1% | CC(C)C(NC(=O)OCc1ccccc1)C(=O)NC1CCCCC1 (centres undefined) |
| -11% | O=C(Cc1cccc(C(F)(F)F)c1)N1CCCC1 |
| 13% | CC(C)(C)c1ccc(C(=O)N/C(=C/c2cccs2)C(=O)NCc2ccco2)cc1 |
| 1% | Cc1ccc(-c2cc3nc(-c4ccccc4)cc(N)n3n2)cc1 |
| -20% | N#Cc1c(Nc2ccccc2)[n+]([O-])c2ccc(Cl)cc2[n+]1[O-] |
| -10% | NS(=O)(=O)c1ccc(NC(=O)COC(=O)CCCN2C(=O)c3cccc4cccc(c34)C2=O)cc1 |
| 2% | CCOC(=O)N1CCN(Cc2cc(=O)oc3cc4c(cc23)CCC4)CC1 |
| -1% | O=C(Nc1ccc2c(c1)OCO2)Nc1ccc2c(c1)OCO2 |
| -27% | CC(NC(=O)C(=O)N1CCOCC1)C(c1cccs1)N1CCN(c2ccccc2)CC1 (centres undefined) |
| -1% | COc1ccc2c(c1)O[C@H](c1ccc3c(c1)OCO3)[C@@H](OC(=O)NS(=O)(=O)c1ccc(F)cc1)C2=O |
| 6% | COc1cccc(CNC(=O)c2cc(S(=O)(=O)N3CCCC3)cn2C)c1 |
| 1% | O=C(c1ccc(Br)cc1)N1CCN(Cc2ccccc2)CC1 |
| -13% | COc1ccc(-c2cc(C(=O)Nc3c(Cl)cccc3Cl)no2)cc1OC |
| u | Cn1c(=O)c2c(nc(N3CCCCCC3)n2CC(O)COc2ccccc2)n(C)c1=O (centres undefined) |
| 6% | COCc1cc(C)nc(OCC(=O)N/N=C/c2cccc(OC)c2)c1C#N |
| -12% | CCN1C(=O)N/C(=C/c2ccc(Sc3ccc(C)cc3)o2)C1=O |
| -1% | COc1cc(C(=S)N2CCN(C)CC2)ccc1OCC(=O)NCc1ccccc1 |
| -4% | CN1CCN(C(=O)c2ccc(C3SCC(=O)N3Cc3ccco3)cc2)CC1 (centres undefined) |
| -2% | CCOCCOC(=O)c1ccc(NC(=O)/C=C/c2ccc(OC)c(OC)c2)cc1 |
| -13% | O=C(COc1ccccc1)NCCc1cn2ccsc2n1 |
| -12% | CS(=O)(=O)Nc1ccc(C2=NN(S(C)(=O)=O)C(c3ccccc3)C2)cc1 (centres undefined) |
| -4% | Cc1ccsc1CNc1ncnc2ccc(-c3c(C)noc3C)cc12 |
| 22µM* | O=C(NCc1ccc2c(c1)OCO2)c1nc(S(=O)(=O)Cc2ccccc2)ncc1Cl |
| -17% | Cc1ccnc(NC(=O)C2CCCN(S(=O)(=O)c3ccc4[nH]c(=O)ccc4c3)C2)c1 (centres undefined) |
| 10% | Cc1[nH]ccc(=O)c1OCc1c(Cl)cccc1Cl |
| 20% | COc1ccc2c(c1)C1C=CCC1C(c1cc3c(cc1Br)OCO3)N2 (centres undefined) |
| -12% | CC(C)(C)NCc1cc(Br)ccc1OC1CCCC1 |
| 3% | CN(Cc1ccccc1)C(=O)c1nc(-c2ccc(Cl)cc2)n2c1CCCCC2 |
| -12% | O=C(CCNC(=O)c1ccccc1Cl)Nc1ccc(S(=O)(=O)Nc2nccs2)cc1 |
| -4% | O=C(COc1ccc(Br)cc1)NCCCN1CCCC1=O |
| -12% | O=C(Nc1ccc2[nH]ccc2c1)c1ccc(F)cc1 |
| 33% | Cc1ccc(OCC(=O)NNC(=O)C(C)Sc2ncnc3sc(C)c(C)c23)cc1 (centres undefined) |
| -10% | COc1cccc(-c2csc(N3CCN(C(=S)Nc4ccccc4C)CC3)n2)c1 |
| 32µM* | N#CC1=C2SCN(Cc3ccco3)CN2C(=O)CC1c1ccccc1F (centres undefined) |
| -1% | O=C(CNC(=O)N1CC(=O)Nc2ccccc21)NCCc1c[nH]c2ccccc12 |
| 5% | Cc1onc(-c2c(F)cccc2Cl)c1C(=O)Nc1nc2ccccc2[nH]1 |
| -28% | Cc1cc(I)ccc1Nc1c(C(=O)NOCC2CC2)cc(F)c(F)c1F |
| 0% | COCCn1c(=O)[nH]c2cc(C(=O)NCCN3CCN(c4ccccc4F)CC3)ccc2c1=O |
| -11% | Cc1[nH]n(-c2cccc(Cl)c2)c(=O)c1/C=N/n1c(C)nc2ccccc2c1=O |
| -15% | Cc1ccc(CN2CCSc3ccc(C(=O)Nc4ccc(F)cc4F)cc32)cc1 |
| 2% | CC(C)(O)C#Cc1ccc(CN2CCC(n3nccc3NC(=O)C3CC3)CC2)cc1 |
| u | Cc1cc(C(=O)NCc2ccc(S(N)(=O)=O)cc2)ccc1[N+](=O)[O-] |
| -15% | Cc1nc(-c2ccccn2)sc1C(=O)O |
| -28% | CC(=O)c1ccc(N2CCN(C(=O)c3ccccc3SCC(=O)NCc3ccco3)CC2)c(F)c1 |
| -22% | CCn1c(=O)n(CC)c2cc(N3CCCC3)c(NC(=O)c3ccccc3F)cc21 |
| 6% | CCOC(=O)N1CCN(C(=O)CSc2ccc(-c3cccc(OC)c3)nn2)CC1 |
| -16% | O=C(NN1CCOCC1)c1cccc(COc2cccc(Br)c2)c1 |
| 10% | CCCCCCCOc1ccc(OC(=O)c2cccnc2)cc1 |
| 13% | Cc1ccc(NC(=O)O/N=C/c2cccc([N+](=O)[O-])c2)cc1 |
| -19% | COc1cccc(C(=O)N(Cc2ccc(N(C)C)cc2)C2CCS(=O)(=O)C2)c1 (centres undefined) |
| 8% | CC(C)Oc1ccc(S(=O)(=O)N2CCOCC2)cc1NC(=O)CN1C(=O)NC2(CCCC2)C1=O |
| -3% | COc1ccc(Cc2nnc(NS(=O)(=O)c3ccc([N+](=O)[O-])cc3)s2)cc1 |
| 6% | COc1ccc(NC(=O)CS(=O)c2ccccc2Cl)cc1 (centres undefined) |
| 6% | CCN(C(=O)Cn1nnc2sc3c(c2c1=O)CCC(C(C)(C)C)C3)c1cccc(C)c1 (centres undefined) |
| 3% | Cc1cccc(NC(=O)CSc2nnc(CNC(=O)c3ccco3)o2)c1C |
| 1% | CC(C(=O)NC1CCCc2ccccc21)N1CCN(c2ccc(F)cc2)CC1 (centres undefined) |
| -3% | COC(=O)[C@@]12CCCN1[C@H](c1ccc(-c3ccc(Cl)c(Cl)c3)c(OC)c1)[C@H]1C(=O)N(C)C(=O)[C@H]12 |
| 11% | CC(=O)c1cccc(N(CC(=O)N2CCCC2)S(C)(=O)=O)c1 |

The list goes on.
| VDR inhibitor | mol |
| --- | --- |
| -12% | CCOC(=O)N1CCN(C(=O)CN(C2CCCCC2)S(=O)(=O)c2ccc(F)cc2)CC1 |
| 4% | O=C(O)CN1CCN(Cc2ccccc2Cl)C1=O |
| -4% | COc1cccc(NC(=S)Nc2cccc3ccccc23)c1 |
| 5% | COC(=O)CN1C(=S)N(C)C(=O)C1CC(=O)Nc1ccccc1 (centres undefined) |
| 0% | CCN1CCC(=NNC(=O)c2ccco2)CC1 |
| -6% | CN1C(C(=O)NCc2cccc(C(F)(F)F)c2)CC2Cn3c(nc4cc5ccccc5cc43)C21 (centres undefined) |
| u | O=[N+]([O-])c1cccc(/C=C/c2nc3ccc([N+](=O)[O-])cc3[nH]2)c1 |
| -12% | c1ccn(-c2ccc(N3CCOCC3)cc2)c1 |
| -13% | CC(=O)N1CCc2c(sc3c2c(=O)n(CCc2ccccc2)c(=O)n3Cc2ccc(Cl)cc2)C1 |
| -5% | Cc1ccc(S(=O)Cc2nc(-c3ccc(C(=O)NC(C)c4ccccc4)cc3)oc2C)cc1 (centres undefined) |
| 4% | Cc1ccc(-c2nn(-c3ccccc3)cc2CSC(=N)N)cc1 |
| 3% | c1nc(NC2CCNCC2)c2cc(-c3ccc4c(c3)OCO4)ccc2n1 |
| 24% | Cc1occc1C(=O)Nc1sc2c(c1C(N)=O)CCC(C(C)(C)C)C2 (centres undefined) |
| -1% | O=C(Nc1ccc2oc(-c3ccncc3)nc2c1)c1ccc([N+](=O)[O-])o1 |
| 17% | CCc1ccccc1NC(=O)N1C2CCCC1CC(NC(C)=O)C2 (centres undefined) |
| -14% | N#Cc1c(-c2ccccc2)nc(-c2cccnc2)[nH]c1=O |
| 13% | COC(=O)CSc1ncnc2c1cnn2Cc1ccccc1 |
| -12% | CCN1C(=O)C(CC(=O)Nc2ccc(OC)cc2)N(CCN2CCOCC2)C1=S (centres undefined) |
| -16% | COCCNc1oc(-c2ccccc2Cl)nc1S(=O)(=O)c1ccc(C)cc1 |
| -2% | CC(C)CCC(=O)N1CCC(N2CCC(C(=O)NCc3ccccn3)CC2)CC1 |
| -6% | CC(=O)c1ccc(NC(=O)c2ccc(-c3ccc(Cl)cc3)o2)cc1 |
| -15% | CC(=O)N/C(=C\c1ccc(Cl)cc1)C(=O)O |
| 9% | N#Cc1cc2c(nc1SCC(=O)Nc1sc3c(c1C#N)CCC3)CCCCC2 |
| 11% | COc1ccc(N(C)C(=O)CC2(CC(=O)O)CCCCC2)cc1 |
| 7% | Cc1ccc(NC(=O)CN(C)S(=O)(=O)c2cnc[nH]2)cc1 |
| 15% | Cc1occc1C(=O)Nc1cc(=O)n(C)c(=O)n1C |
| 2% | CCOC(=O)CCSc1nnc(-c2cccnc2)n1-c1ccccc1OC |
| 14% | CCOc1cc(C(=O)CCC(=O)OCC(=O)Nc2ccc(C)c(S(=O)(=O)N(C)C)c2)ccc1O |
| 7% | Cn1c(CNC(=O)c2ccco2)nnc1SCC(=O)N1c2ccccc2Sc2ccccc21 |
| -10% | Cc1ccc(N/C(CSC(N)=O)=N\S(=O)(=O)c2ccc(C)cc2)cc1 |

Part of the list above in order of count of non-hydrogen atoms, lowest first.
| VDR inhibitor | mol |
| --- | --- |
| 7% | Cc1ccc(NC(=O)CN(C)S(=O)(=O)c2cnc[nH]2)cc1 |
| 13% | COC(=O)CSc1ncnc2c1cnn2Cc1ccccc1 |
| 14% | CCOc1cc(C(=O)CCC(=O)OCC(=O)Nc2ccc(C)c(S(=O)(=O)N(C)C)c2)ccc1O |

Records listed above printed as active in VDR inhibitor.
| VDR inhibitor | mol |
| --- | --- |
| 22µM* | O=C(NCc1ccc2c(c1)OCO2)c1nc(S(=O)(=O)Cc2ccccc2)ncc1Cl |
| 32µM* | N#CC1=C2SCN(Cc3ccco3)CN2C(=O)CC1c1ccccc1F (centres undefined) |

New compounds follow.
| VDR inhibitor | mol |
| --- | --- |
| -15% | COc1ccc(S(=O)(=O)N(C)CC(=O)N2CCN(C)CC2)cc1C |
| 11% | O=C(Cn1ncc2c3ccccc3n(Cc3ccc(F)cc3)c2c1=O)NCCC1=CCCCC1 |
| -19% | O=C(CNC(=O)COc1ccccc1)NCc1ccccc1F |
| -2% | CC(C)(C)P(=O)(CO)c1ccccc1 (centres undefined) |
| -15% | CCOC(=O)N1CCN(/[N+]([O-])=N/Oc2ccc([N+](=O)[O-])cc2[N+](=O)[O-])C(C)C1 (centres undefined) |
| 35%[activator] | COc1ccc(OCC(O)CNC(=O)c2ccccc2C(=O)O)cc1 (centres undefined) |
| 9% | CN(C)c1nc(N)nc(CSc2nnnn2-c2ccc(F)cc2)n1 |
| 13% | CC1(C)CC(C(=O)Nc2ccccc2)C(=O)O1 (centres undefined) |
| -12% | S=C(c1ccccc1)N1CCN(c2ccccc2)CC1 |
| -12% | CC(=O)N1CCc2cc(S(=O)(=O)NCCN3CCC(C)CC3)ccc21 |
| 3% | Cc1cc(OCCN2CC(C)OC(C)C2)ccc1[N+](=O)[O-] (centres undefined) |
| -2% | CC(CNC(=O)c1nnc(Cc2cccc(F)c2)o1)c1ccccc1 (centres undefined) |
| -23% | Cc1ccccc1-c1ccc(C(=O)Nc2cccc(F)c2)o1 |
| 8% | Cc1cc(C)nc(SCc2nnc(SCC(=O)Nc3nccs3)n2Cc2ccco2)n1 |
| 3% | COc1ccccc1NC(=O)CSc1nc2nccnc2c(=O)n1Cc1cccs1 |
| 5% | COc1ccc(-c2cc(C)no2)cc1S(=O)(=O)NCc1ccco1 |
| 2% | COc1ccccc1N1CCN(C(=O)CCCn2nc(C)c([N+](=O)[O-])c2C)CC1 |
| 9% | COCC(=O)Nc1ccc(Br)c(C)c1 |
| 3% | CN(C)c1cccc(NC(=O)CCc2ccccc2)c1 |
| -13% | Cc1ccc(S(=O)(=O)NC(=O)Nc2nc(-c3ccc(F)c(F)c3)cs2)cc1 |
| -24% | CC(=O)c1cccc(-n2c(CCC(=O)O)ccc2-c2ccc(C)cc2)c1 |
| 0% | COc1ccc(-c2c(C#Cc3ccsc3)c3cc(-c4ccc(OC)c(F)c4)ccc3n2C)cc1 |
| -18% | O=C(NCCOC(=O)c1ccccc1)c1ccccc1 |
| 5% | COCCn1nnnc1CN(CCc1ccccc1)Cc1cc2ccc(C)cc2[nH]c1=O |
| 15% | CCCc1ccc(S(=O)(=O)N/N=C(/C)c2ccc3c(c2)OCO3)cc1 |
| 7% | O=C(CSc1nc(-c2cccc(F)c2)[nH]c1-c1ccccc1)Nc1ccc2c(c1)OCCO2 |
| 3% | O=C(NCCN1CCOCC1)c1ccc(Cl)c(Cl)c1 |
| -1% | CN(CC(=O)Nc1ccc(Cl)cc1)CC(=O)Nc1ccc(C(N)=O)cc1 |

An excerpt from above in order of their number in VDR inhibitor, descending:
| VDR inhibitor | mol |
| --- | --- |
| 15% | CCCc1ccc(S(=O)(=O)N/N=C(/C)c2ccc3c(c2)OCO3)cc1 |
| 5% | COCCn1nnnc1CN(CCc1ccccc1)Cc1cc2ccc(C)cc2[nH]c1=O |
| 3% | COc1ccccc1NC(=O)CSc1nc2nccnc2c(=O)n1Cc1cccs1 |
| 0% | COc1ccc(-c2c(C#Cc3ccsc3)c3cc(-c4ccc(OC)c(F)c4)ccc3n2C)cc1 |
| -2% | CC(CNC(=O)c1nnc(Cc2cccc(F)c2)o1)c1ccccc1 (centres undefined) |
| -12% | CC(=O)N1CCc2cc(S(=O)(=O)NCCN3CCC(C)CC3)ccc21 |
| -13% | Cc1ccc(S(=O)(=O)NC(=O)Nc2nc(-c3ccc(F)c(F)c3)cs2)cc1 |
